High-throughput results as filed in PubChem BioAssay.
HIV Env fusion = inhibitors of HIV Env-mediated cell fusion. HeLa-JRFL Env/CEM21 cell fusion, luciferase. inhibition, % at 12.3 µM. 360,000 tested, 1.1% active;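 active means mean replicate inhibition score of at least 50 and every replicate individually at or above 50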;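 further: 0% = plate neutral controls and 100% = maraviroc near 300 nM; one replicate is shown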
* hit, by the source's call; & = joins results of further samples; [ ] = dose if it differs, or a comment. A portion of the library; rates above refer to the full screens.

Compound,HIV Env fusion
CO[C@@H]1CC[C@@H]2CCN(C)C(=O)[C@H](C)N(C)C(=O)c3cc(C#N)ccc3OC[C@@H]1O2,6.0[16.7 µM]
CN(C(=O)[C@H]1O[C@@H](n2cnc3c(=O)[nH]c(N)nc32)[C@H](O)[C@@H]1O)C1CCCCC1,-8.1
COCC(=O)Nc1ccc2c(c1)[C@H]1C[C@@H](CC(=O)NCc3ccc4c(c3)OCO4)O[C@H](CO)[C@H]1O2,6.0[16.7 µM]
COCC(=O)Nc1ccc2c(c1)[C@@H]1C[C@@H](CC(=O)N[C@H](C)c3ccccc3)O[C@@H](CO)[C@@H]1O2,4.0[16.7 µM]
CCN(CC)C(=O)c1ncn2c1C(=O)NC[C@H]2C,49.8
CCCNC(=O)C[C@H]1C[C@H]2c3cc(NC(=O)NC4CCCCC4)ccc3O[C@H]2[C@H](CO)O1,-4.1[16.7 µM]
COCCN=C1Sc2ccccc2[C@@H]2C[C@H]3[C@H](CON3C)CN12,13.0
CC(C)C[C@@H]1COc2cc(NCCCN3CCOCC3)ccc2S(=O)(=O)N1,-16.3
CO[C@H]1CN(C)C(=O)c2cc(NC(=O)c3nc4ccccc4s3)ccc2OC[C@@H](C)N(Cc2cncnc2)C[C@@H]1C,4.6[16.7 µM]
C[C@H]1CN([C@@H](C)CO)C(=O)Cc2cc(NS(=O)(=O)c3ccc(Cl)cc3)ccc2O[C@H]1CN(C)Cc1ccc(C(=O)O)cc1,9.1[16.7 µM]
Cc1ccc2c(c1)-n1c(nc3ccc(Cl)cc3c1=O)C(CC(C)C)NC2=O (stereo unspecified),-0.8
C[C@@H]1CN([C@H](C)CO)C(=O)c2cc(NS(C)(=O)=O)ccc2O[C@@H]1CN(C)Cc1ccc2c(c1)OCO2,-8.0[16.7 µM]
C[C@H]1CN([C@@H](C)CO)C(=O)c2c(c3ccccc3n2C)-c2ccccc2CO[C@H]1CN(C)S(=O)(=O)CC(F)(F)F,35.8[16.7 µM]
CNC(=O)C[C@@H]1CC[C@H]2[C@H](COc3ccc(NC(=O)Nc4c(C)noc4C)cc3C(=O)N2C)O1,11.0[16.7 µM]
C[C@H](CO)N1C[C@H](C)[C@H](CN(C)S(=O)(=O)c2ccsc2)OCc2ccccc2-c2ccccc2C1=O,40.2[16.7 µM]
Cc1noc(C)c1S(=O)(=O)Nc1cccc2c1O[C@@H](CN(C)Cc1ccc(-c3ccccc3)cc1)[C@@H](C)CN([C@@H](C)CO)C2=O,-17.7[16.7 µM]
C[C@@H]1CN([C@@H](C)CO)C(=O)c2cccc(NC(=O)NC3CCCCC3)c2O[C@@H]1CN(C)Cc1ccc2c(c1)OCO2,12.3[16.7 µM]
CN(C)C(=O)c1ccc(-c2cccc(-c3nc(C(=O)NC4CCC4)cc4c3[C@@H](CCO)N([S@](=O)C(C)(C)C)C4)c2)cc1,8.3[16.7 µM]
C[C@H]1CN([C@@H](C)CO)C(=O)c2ccccc2-c2ccccc2CO[C@H]1CN(C)S(=O)(=O)c1ccccc1C#N,66.4*[16.7 µM]
COc1cccc(C(=O)Nc2ccc3c(c2)C(=O)N(C)[C@@H]2CC[C@@H](CC(=O)NCC(F)(F)F)O[C@@H]2CO3)c1,1.0[16.7 µM]
CN(C)C(=O)[C@H]1[C@H](CO)[C@H]2Cn3c(ccc(-c4ccccc4)c3=O)[C@H]2N1CCC(F)(F)F,-11.3[16.7 µM]
C[C@@H]1CCCCO[C@@H](CN(C)C(=O)c2ccncc2)[C@H](C)CN([C@H](C)CO)C(=O)c2cc(NC(=O)c3ccncc3)ccc2O1,20.4[16.7 µM]
CO[C@H]1CN(C)C(=O)c2ccc(NC(=O)c3ccccc3F)cc2OC[C@@H](C)N(C)C[C@H]1C,4.8[16.7 µM]
CC(C)NC(=O)N(C)C[C@H]1OCCCC[C@H](C)Oc2ccc(NC(=O)Cc3ccccc3)cc2C(=O)N([C@@H](C)CO)C[C@H]1C,18.7[16.7 µM]
CO[C@@H]1CN(C)C(=O)c2ccc(NS(=O)(=O)c3ccc(C)cc3)cc2OC[C@@H](C)N(Cc2ccccn2)C[C@H]1C,-16.3[16.7 µM]
CCOC(=O)C1=C(C(=O)OCC)C2N(Cc3ccc(C(F)(F)F)cc3)c3ccccc3[C@@]23C[C@@H](C(=O)OC)N(S(=O)(=O)c2ccccc2C)C3=N1 (stereo partly specified),-9.1
COC(=O)[C@]12C[C@H](CC(=O)NCCCN3CCCC3=O)C(=O)N(CCC3=CCCCC3)C1=C[C@H](COCc1ccccc1)O[C@@H]2C,-27.6
Cc1ccc(S(=O)(=O)N(C)C[C@H]2Oc3ccc(NS(=O)(=O)c4ccc(Cl)cc4)cc3C(=O)N([C@@H](C)CO)C[C@@H]2C)cc1,11.2[16.7 µM]
O=C(C[C@@H]1CC[C@@H]2NC[C@@H](O)COC[C@H]2O1)NCc1ccc2c(c1)OCO2,-7.0[16.7 µM]
COc1cc(Nc2cc(C)n(-c3cc(OC)cc(OC)c3)c(=O)c2)cc(OC)c1,-15.8
C=CCNc1cccc2c1S(=O)(=O)N[C@@H](C)CO2,5.8
CC(C)NC(=O)N(C)C[C@@H]1Oc2ccc(NC(=O)C3CC3)cc2C(=O)N([C@@H](C)CO)C[C@@H]1C,-5.0[16.7 µM]
C[C@@H]1CN([C@H](C)CO)C(=O)c2cccc(N(C)C)c2O[C@@H]1CN(C)Cc1ccc(-c2ccccc2)cc1,23.0[16.7 µM]
CN1CCN(C(=O)C[C@H]2C=C[C@@H](NS(=O)(=O)c3cccc(F)c3)[C@@H](CO)O2)CC1,3.4[16.7 µM]
CCCNC(=O)N1C[C@H](O)COC[C@H]2O[C@H](CC(=O)N3CCC(Cc4ccccc4)CC3)CC[C@@H]21,13.8[16.7 µM]
C[C@@H]1CN([C@@H](C)CO)C(=O)c2cccc(NS(C)(=O)=O)c2O[C@@H]1CN(C)S(=O)(=O)c1ccc(F)cc1,-51.4[16.7 µM]
Cc1noc(C)c1NC(=O)Nc1ccc2c(c1)C(=O)N([C@@H](C)CO)C[C@@H](C)[C@H](CN(C)S(=O)(=O)c1ccccc1)O2,22.3[16.7 µM]
CCC(=O)N1C[C@H](C)[C@H](OC)CN(C)C(=O)c2ccc(NC(=O)C3CCOCC3)cc2OC[C@H]1C,-18.5[16.7 µM]
C[C@H](CO)N1C[C@H](C)[C@H](CN(C)S(=O)(=O)c2cccs2)Oc2ccc(NS(=O)(=O)c3cccs3)cc2C1=O,13.6[16.7 µM]
O=C(C[C@@H]1C[C@@H]2c3cc(NC(=O)NC4CCCC4)ccc3O[C@@H]2[C@H](CO)O1)NCc1ccncc1,-6.7[16.7 µM]
C[C@H](NC(=O)C[C@@H]1C[C@H]2c3cc(NC(=O)C4CCOCC4)ccc3O[C@H]2[C@H](CO)O1)c1ccccc1,6.3[16.7 µM]
CO[C@H]1CN(C)C(=O)c2cc(NC(=O)C3CCOCC3)ccc2OC[C@@H](C)N(Cc2cccnc2)C[C@@H]1C,-45.1[16.7 µM]
CO[C@H]1CC[C@H]2CCN(C)C(=O)[C@@H](C)N(C)C(=O)c3cc(C#N)ccc3OC[C@@H]1O2,8.3[16.7 µM]
COC(=O)c1cc2c(c3c4cc(OC)ccc4n(S(=O)(=O)c4ccc(OC)cc4)c13)C(=O)N(Cc1ccccc1)C2,-1.6
CCNC(=O)C[C@H]1CC[C@H]2[C@H](COc3ccc(NC(C)=O)cc3C(=O)N2C)O1,-17.3[16.7 µM]
CO[C@H]1CC[C@@H]2CCOc3ccc(C#N)cc3C(=O)N(C)C[C@H](C)C(=O)N(C)C[C@H]1O2,-12.6[16.7 µM]
C[C@H](CO)N1C[C@H](C)[C@H](CN(C)C(=O)C2CC2)OCc2cn(nn2)CCCC1=O,5.0[16.7 µM]
CCC(=O)Nc1ccc2c(c1)OC[C@H](C)N(C(=O)c1ccc(F)cc1)C[C@@H](C)[C@H](OC)CN(C)C2=O,8.0[16.7 µM]
C[C@@H]1CCCCO[C@H](CN(C)CC2CC2)[C@H](C)CN([C@@H](C)CO)C(=O)c2cc(NS(=O)(=O)c3cn(C)cn3)ccc2O1,20.0[16.7 µM]
CCCN1C(=O)c2n[nH]c(C)c2C1c1ccc(Br)cc1 (stereo unspecified),-5.4
C[C@H](CO)N1C[C@H](C)[C@H](CN(C)S(=O)(=O)c2ccc(Cl)cc2)Oc2ccc(NC(=O)Cn3cnnn3)cc2C1=O,-6.2[16.7 µM]
O=C(C[C@@H]1C[C@H]2c3cc(NC(=O)Cc4ccncc4)ccc3O[C@H]2[C@@H](CO)O1)NCc1cccc(F)c1,-5.3[16.7 µM]
CN1C(=O)c2cc(NC(=O)c3cccc(F)c3)ccc2OC[C@H]2O[C@@H](CC(=O)NCC3CCCCC3)CC[C@@H]21,19.5&19.4[16.7 µM]
CC(C)(C)OC(=O)N1CCC2CCN(S(C)(=O)=O)CC21 (stereo unspecified),1.9
COCCNC(=O)C[C@@H]1C[C@@H]2c3cc(NC(=O)Nc4ccc(C(F)(F)F)cc4)ccc3O[C@@H]2[C@H](CO)O1,-5.1[16.7 µM]
CO[C@@H]1CC[C@@H]2CCOc3c(C#N)cccc3C(=O)N(C)C[C@H](c3ccccc3)CC(=O)N(C)C[C@H]1O2,5.6[16.7 µM]
CCCNC(=O)C[C@@H]1C[C@H]2c3cc(NC(=O)COC)ccc3O[C@H]2[C@@H](CO)O1,-5.6[16.7 µM]
C[C@@H]1CN([C@@H](C)CO)C(=O)Cc2cc(NC(=O)CCC(F)(F)F)ccc2O[C@@H]1CN(C)Cc1ccncc1,6.3[16.7 µM]
O=C(CCN1CCCCC1)N[C@@H]1CC[C@@H](CC(=O)N2CCC(Cc3ccccc3)CC2)O[C@@H]1CO,-5.5[16.7 µM]
O=C(C[C@H]1CC[C@@H]2[C@H](COC[C@@H](O)CN2CC2CCOCC2)O1)NCc1ccc(Cl)cc1,-5.2[16.7 µM]

A draw from above in order of formula weight, lowest first.
Compound,HIV Env fusion
CC(C)(C)OC(=O)N1CCC2CCN(S(C)(=O)=O)CC21 (stereo unspecified),1.9
CCNC(=O)C[C@H]1CC[C@H]2[C@H](COc3ccc(NC(C)=O)cc3C(=O)N2C)O1,-17.3[16.7 µM]
O=C(C[C@H]1CC[C@@H]2[C@H](COC[C@@H](O)CN2CC2CCOCC2)O1)NCc1ccc(Cl)cc1,-5.2[16.7 µM]
CCC(=O)Nc1ccc2c(c1)OC[C@H](C)N(C(=O)c1ccc(F)cc1)C[C@@H](C)[C@H](OC)CN(C)C2=O,8.0[16.7 µM]
CO[C@H]1CN(C)C(=O)c2cc(NC(=O)C3CCOCC3)ccc2OC[C@@H](C)N(Cc2cccnc2)C[C@@H]1C,-45.1[16.7 µM]
C[C@H](CO)N1C[C@H](C)[C@H](CN(C)S(=O)(=O)c2ccc(Cl)cc2)Oc2ccc(NC(=O)Cn3cnnn3)cc2C1=O,-6.2[16.7 µM]

New compounds follow:
Compound,HIV Env fusion
COC(=O)C[C@@H]1C[C@H]2c3cc(NC(=O)c4ccc5c(c4)OCO5)ccc3O[C@H]2[C@@H](CO)O1,-12.7[16.7 µM]
CO[C@@H]1CN(C)C(=O)c2ccc(NC(=O)c3cc(C)on3)cc2OC[C@H](C)N(C)C[C@H]1C,15.8[16.7 µM]
CC(C)NC(=O)Nc1ccc2c(c1)C(=O)N([C@H](C)CO)C[C@@H](C)[C@@H](CN(C)C(=O)CCC(F)(F)F)OCCCC[C@@H](C)O2,79.4*[16.7 µM]
C[C@H]1CN([C@@H](C)CO)C(=O)c2ccccc2-c2ccccc2CO[C@H]1CN(C)CC1CC1,21.2[16.7 µM]
CO[C@@H]1CN(C)C(=O)c2cc(NC(=O)C3CCOCC3)ccc2OC[C@@H](C)N(Cc2cccnc2)C[C@H]1C,1.2[16.7 µM]
COC(=O)C1=C(C)N(Cc2cccc(C(F)(F)F)c2)C(=NCc2ccc3c(c2)OCO3)NC1c1cccc(C(F)(F)F)c1 (stereo unspecified),18.7
O=C(C[C@@H]1C=C[C@@H](NC(=O)Nc2ccc(C(F)(F)F)cc2)[C@@H](CO)O1)NCc1cccc(F)c1,10.0[16.7 µM]
CO[C@@H]1CN(C)C(=O)c2ccc(NC(=O)Nc3cc(F)ccc3F)cc2OC[C@@H](C)N(C)C[C@@H]1C,3.5[16.7 µM]
C[C@H](CO)N1C[C@H](C)[C@H](CN(C)C)Oc2ccc(NC(=O)C3CC3)cc2C1=O,2.3[16.7 µM]
COCC#Cc1ccc(CC[C@H]2O[C@H]3CC[C@H](CO)O[C@H]3C[C@H]2n2cc(C3CC3)nn2)cc1,-1.3[16.7 µM]
COc1ccccc1NC(=O)N[C@H]1CC[C@H](CCn2cc(C3(O)CCCC3)nn2)O[C@@H]1CO,-1.7[16.7 µM]
COc1ccc(CNS(=O)(=O)c2cc(Br)ccc2Br)cc1,-20.3
COc1ccccc1CNC(=O)C[C@@H]1C[C@@H]2c3cc(NC(=O)CN(C)C)ccc3O[C@@H]2[C@H](CO)O1,-3.1[16.7 µM]
CO[C@H]1CN(C)C(=O)c2ccc(NC(=O)Nc3cc(F)ccc3F)cc2OC[C@H](C)N(C)C[C@H]1C,4.2[16.7 µM]
CN1C(=O)c2cc(NS(=O)(=O)c3cccc(F)c3)ccc2OC[C@@H]2O[C@@H](CC(=O)N3CCc4ccccc4C3)CC[C@@H]21,3.6[16.7 µM]
CCS(=O)(=O)Nc1ccc2c(c1)OC[C@H](C)NC[C@@H](C)[C@@H](OC)CN(C)C2=O,-12.8[16.7 µM]
Cc1noc(C)c1S(=O)(=O)Nc1ccc2c(c1)C(=O)N([C@H](C)CO)C[C@H](C)[C@H](CN(C)Cc1ccc(C(F)(F)F)cc1)OCCCC[C@H](C)O2,1.8[16.7 µM]
O=C(NCc1ccccc1)[C@H]1CCCN1C(=O)[C@H]1CCCN1C(=O)c1ccc(F)c(C(F)(F)F)c1,1.0
O=C(NCC1CC1)[C@@H]1[C@@H](CO)[C@@H]2Cn3c(cccc3=O)[C@@H]2N1Cc1cncnc1,8.0[16.7 µM]
